# Screens (PubChem)
# TRPV1 PAM – potentiators of human vanilloid receptor 1 (TRPV1). Q8NER1. TRPV1-expressing cells, Fluo-8 calcium influx, capsaicin EC20 potentiation; host cell line not named in the record; control for the full effect not named in the record. potentiation, % at 8.33 µM. 320,000 tested, 0.02% active. AID 540277; active means potentiation above 80%; inconclusive means 30% to 80%; inactive means below 30%; note: 0% is about no effect
#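 Cells expressing TRPV1 were dye-loaded with Fluo-8 and read kinetically: 10 s baseline, 3 min after compound (agonist portion), then 2 min after EC20 capsaicin (allosteric enhancer portion). Calcium-bound dye fluorescence at 480/520 nm.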
# PINK1 modulator – PINK1 expression modulation. Potency, µM (series often up to 76.6 µM), for inactives: at the highest dose activation (PINK1 increase), hits mostly activators. 410,000 tested, 0.2% active. PINK1 immunofluorescence, high-content cytometry, 24 h; active = well fitted activation curve with a large enough effect; inconclusive = small, poorly fitted or top-dose-only effect; inactive = flat fitted curve, though single readings scatter; cell line not stated here;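 note: potency is the fitted concentration of half-maximal effect; % of control where 0% means no effect; nearly all actives have a fitted effect of over 65% in size; a mitochondrial uncoupler was the plate control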
#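 Fluorescence from anti-PINK1 antibody, together with nuclear and cell stains, was scanned on a laser-scanning cytometer. Before staining, stable-line cells were incubated 24 hours with compounds at 5 concentrations; primary antibody 12 h at 10 degrees C.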
# TRPML1 inh – inhibitors of human TRPML1 channel; Q9GZU1; TRPML1-inducible cells, Ca2+ dye fluorescence, FDSS; active compounds read low; inhibition of EC80 agonist-evoked calcium signal; 390,000 tested, 0.02% active; activity change, negative = inhibition, % (test concentration not listed); AID 624415; in the data active means activity change below about -50%; inconclusive means about -30% to -50%; inactive means above about -30%;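 note: stimulus is agonist 54-4 at its EC80 concentration; % is set by controls: 0 for no effect and ±100 for the full control effect; compound concentration not given in the record; the text of the record puts the active cut at -80%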
# Target sequence (Q9GZU1 whole entry, looked up): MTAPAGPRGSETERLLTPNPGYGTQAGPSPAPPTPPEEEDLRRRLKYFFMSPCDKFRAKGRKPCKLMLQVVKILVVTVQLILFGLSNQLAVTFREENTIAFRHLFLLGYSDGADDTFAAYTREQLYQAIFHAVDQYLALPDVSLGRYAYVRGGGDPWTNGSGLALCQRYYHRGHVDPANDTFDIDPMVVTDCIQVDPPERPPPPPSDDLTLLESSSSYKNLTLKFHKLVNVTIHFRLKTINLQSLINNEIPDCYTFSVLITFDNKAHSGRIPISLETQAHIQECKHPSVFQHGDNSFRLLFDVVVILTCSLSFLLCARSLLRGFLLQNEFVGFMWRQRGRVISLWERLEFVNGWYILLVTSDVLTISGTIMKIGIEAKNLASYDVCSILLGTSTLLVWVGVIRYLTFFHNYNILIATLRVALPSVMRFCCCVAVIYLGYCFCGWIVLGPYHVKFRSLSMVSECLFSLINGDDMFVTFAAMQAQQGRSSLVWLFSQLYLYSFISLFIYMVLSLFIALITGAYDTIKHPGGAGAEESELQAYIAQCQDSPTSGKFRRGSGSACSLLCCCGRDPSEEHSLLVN
#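 TRPML1-DL cells, Tet-induced overnight (~16 h, 37 °C) at 1,500 cells/well, were loaded with Ca8 no-wash dye plus quencher for 45-90 min at room temperature. Compounds were pinned during FDSS kinetic reading; agonist 54-4 at EC80 (4 uM final) then added.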
# ClpP mod – qHTS Assay for Activators of ClpP; 340,000 tested, 1.9% active; ATP-dependent Clp protease proteolytic subunit (Bacillus subtilis (strain 168)), P80244; Potency, µM (series often up to 57.5 µM), for inactives: at the highest dose activity change, negative = active; purified B. subtilis ClpP, FRET peptide cleavage, 20 min; active = well fitted falling curve with a large enough effect; inconclusive = small, poorly fitted or top-dose-only effect; inactive = no such curve, though single readings can be large or run the other way; note: potency is the fitted concentration of half-maximal effect; the source files actives as falling curves though it sought activators and does not explain the sign; nearly all actives have a fitted effect of over 65% in size; many hits overshoot -100%
# Target sequence (P80244 whole entry, looked up): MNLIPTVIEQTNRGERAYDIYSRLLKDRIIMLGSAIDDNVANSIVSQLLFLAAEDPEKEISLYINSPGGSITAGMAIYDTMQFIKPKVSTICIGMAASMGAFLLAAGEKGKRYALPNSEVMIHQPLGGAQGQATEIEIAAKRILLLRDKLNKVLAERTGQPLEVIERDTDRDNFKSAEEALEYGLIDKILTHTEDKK
#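 Purified B. subtilis ClpP, 10 microg/mL final in Tris/HCl pH8 with KCl, BSA, glycerol and Tween-20, cleaved an Abz/nitrotyrosine-quenched decapeptide. Fluorescence (ex 320, em 430) was read at 0 and 20 min at room temperature. Delta was normalized to 5.8 microM ADEP and DMSO/no-enzyme controls.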
# Sfp PPTase inh – inhibitors of Bacillus subtilis Sfp phosphopantetheinyl transferase | Q9F4F7 | AID 1490 | Potency, µM, for the others: max response, negative = inhibition, most hits filed as inhibitors | Biochemical Sfp PPTase activity, qHTS | 310,000 tested, 3.5% active; active = well fitted inhibition curve with a large enough effect; inconclusive = small, poorly fitted or top-dose-only effect, or another doubt; inactive = no such curve, though single readings can be large or run the other way;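 note: the enzyme is Sfp with the accession as filed and its product quenches rhodamine fluorescence; potency is the fitted concentration of half-maximal effect; 0% = enzyme reaction without inhibitor and -100% = no enzyme wells; top concentration of the series not given in the record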
#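 After 15 min at room temperature with compound, 15 nM Sfp received 5 uM rhodamine-CoA plus 12.5 uM BHQ-2-ybbR (50 mM Hepes pH 7.6, 10 mM MgCl2). Rate came from the fluorescence difference over 30 min, ex 525/em 598 nm.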
# TRPML1 ag – activates the human TRPML1 channel | Q9GZU1 | TRPML1-expressing cells, Ca2+ dye fluorescence, FDSS; host cell line not named in the record; reference of the full effect not given here | activation, % (concentration not given with the values) | 410,000 tested, 0.12% active | AID 624414; in the data active = activation above about 50%; inconclusive = about 30% to 50%; inactive = below about 30%; note: 0% is about no effect; the text of the record puts the active cut at 80%
#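 In this qHTS format, compounds were pin-transferred onto Ca8-dye-loaded TRPML1-DL cells induced with Tet overnight, and intracellular Ca2+ fluorescence was recorded kinetically for 110 s after a 10 s baseline. A subsequent 4uM final 54-4 (EC80) addition followed by a second 110 s read served as the antagonist phase.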
# Menin MLL FP FL – inhibitors of human menin-MLL interaction, wild-type MLL peptide. FP activity change, % at 61.4 µM. Fluorescence polarization, fluorescein-MLL peptide displacement from menin. 290,000 tested, under 10 active; inconclusive = falling polarisation curve, or a change in total fluorescence; inactive = total fluorescence flat and polarisation flat or rising; no compound was filed as active; the % refers to the polarisation; negative = inhibition;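 note: % of control where 0% means no effect; inhibitors lower the polarisation; unlabelled MLL peptide was the positive control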
# The depositor's hits bear a star; u = inconclusive; x = not tested or not shown; & = joins results of further samples; [ ] = remark or other dose.
# Below each compound: TRPV1 PAM | Sfp PPTase inh | Menin MLL FP FL | PINK1 modulator | ClpP mod | TRPML1 ag | TRPML1 inh
> CC(Sc1ccccc1)C(=O)NCCc1ccccc1 (centres undefined)
→ -12 | 18% | 2.8 | -0.6% | -0.1% | x | x
> O=C(O)CSc1nnc(-c2ccc(S(=O)(=O)N3CCCC3)cc2)n1Cc1ccco1
→ 2 | 32µM* | 10 | 1.0%[38.3 µM] | -3.1% | 1.3 | -20
> Cc1nccn1CCCNCc1c(C(=O)N2CCCCCCC2)nc2ccc(Cl)cn12
→ 1 | 21% | -1.8 | 0.1% | x | -0.4 | -22
> CCOc1cc(/C=C\c2nc(O)c([N+](=O)[O-])c(=O)[nH]2)ccc1OC(C)C
→ 3 | -4% | -6.4 | 1.8% | x | -0.7 | 16
> CCNC(=O)C1(C)CCN(C(=O)c2cccc(Cl)c2)C1 (centres undefined)
→ x | x | x | -0.3% | -0.1% | -0.5 | x
> CCN(Cc1ccccc1)c1ccccc1
→ x | x | x | 6.7% | 0.4% | -0.7 | 19
> COc1ccc(-c2c(C#Cc3ccsc3)c3cc(-c4ccc5c(c4)OCCO5)ccc3n2C)cc1
→ x | x | x | 0.0% | 3.8% | -0.6 | 6
> Cc1ccc(S(=O)(=O)N2CCC(=O)N(CCO)CC2)cc1
→ 12 | 9% | 1.8 | 0.4% | 0.6% | -0.7 | 2
> COc1ccc(-c2nc3ccc(N4CCN(C)CC4)cc3c(=O)[nH]2)cc1
→ 2 | 23% | 1.9 | 1.6% | x | 0.1 | -5
> COc1ccc(C(=O)Nn2c(CC(C)C)nc3cc(OC)c(OC)cc3c2=O)c(OC)c1
→ -4 | 3% | 0.4 | 1.9% | -4.0% | -0.8 | -4
> CCOC(=O)c1c(C)[nH]c(C)c1S(=O)(=O)N(C)CC(=O)Nc1ccccc1C
→ -7 | 14% | 0.4 | 1.2% | -1.1% | 0.6 | 19
> CNC(=O)COC(=O)c1cc(F)c(F)cc1Cl
→ 16 | 7% | -2.6 | -1.4% | 2.1% | 2.1 | 6
> COCCN(C(=S)Nc1c(C)cccc1C)C(C)c1cccnc1 (centres undefined)
→ 4 | -6% | -1.8 | 1.2% | 0.9% | 0.3 | 6
> CCOc1ccccc1/C=N/Nc1nc2c(N)ncnc2n1[C@H]1O[C@@H](CO)[C@H](O)[C@@H]1O
→ 2 | 56µM* | 1.5 | 1.0% | -6.6% | 0.6 | 5
> CCOC(=O)C1CCN(C(=O)C(C)Oc2ccc(Br)cc2)CC1 (centres undefined)
→ 0 | 14% | -0.4 | -1.1% | x | 0.4 | -5
> COc1ccc(-c2sc3cc4c(cc3c2-c2ccc3c(c2)OCCO3)OCO4)cc1
→ x | x | x | 1.6% | u | -0.5 | 16
> Cc1sc(NC(=O)C2=COCCO2)nc1-c1ccc(Br)cc1
→ -5 | x | x | 3.9% | 0.4% | 0.9 | -1
> N#CCSc1nnc(-c2cnccn2)n1Cc1ccccc1
→ -6 | 3% | -1.5 | -2.1% | -1.4% | 0.4 | 23
> Cc1ccc(OCc2cc(=O)n3c4c(sc3n2)CCCC4)cc1C
→ x | x | x | 9.6% | -16% | -0.3 | -14
> CCCC[C@H]1COCCS(=O)(=O)N1Cc1cccc(Cl)c1
→ 7 | -5% | -8.5 | 3.2% | 0.5%&-0.8% | 1.4&-0.3 | 6

# One compound at a time, as listed above. Order of values: TRPV1 PAM | Sfp PPTase inh | Menin MLL FP FL | PINK1 modulator | ClpP mod | TRPML1 ag | TRPML1 inh
# `Cc1sc(NC(=O)C2=COCCO2)nc1-c1ccc(Br)cc1` in the list: -5 | x | x | 3.9% | 0.4% | 0.9 | -1
# `CCOc1cc(/C=C\c2nc(O)c([N+](=O)[O-])c(=O)[nH]2)ccc1OC(C)C` in the list: 3 | -4% | -6.4 | 1.8% | x | -0.7 | 16

# Going on with the list.
# Below each compound: TRPV1 PAM | Sfp PPTase inh | Menin MLL FP FL | PINK1 modulator | ClpP mod | TRPML1 ag | TRPML1 inh
> CCOC(=O)c1cnc2cc(Cl)c(OC)cc2c1Nc1ccc(Br)cc1C
→ x | x | x | 1.5% | 1.9% | -0.2 | 4
> Cc1ccc(C(CC(=O)c2ccco2)SCCO)cc1 (centres undefined)
→ x | -4% | 0.5 | -2.7% | 9.4% | -1.0 | 1
> COc1ccc(C2NC(=S)NC(C)=C2C(=O)Nc2ccccn2)cc1OC (centres undefined)
→ 19 | 6% | 6.3 | -0.5% | -0.9% | -0.5 | 2
> COC(=O)c1cc(COc2ccc3oc(C)c(C(=O)OC(C)C)c3c2)c(C)o1
→ 0 | u | -1.7 | 6.2% | 2.5µM* | 0.3 | 20
> CS(=O)(=O)c1ccc(Cl)c(NC(=O)C2CC(=O)N(Cc3ccco3)C2)c1 (centres undefined)
→ 22 | x | x | -0.4% | x | -0.1 | 1
> CCOCCCNC(=O)C1c2ccccc2Oc2ccccc21
→ -8 | 8% | 0.5 | 1.2% | -21% | -1.5 | 12
> COC(=O)C1=C(C)Nc2nc3ccccc3n2C1c1cc(OC)c(OC)c(OC)c1 (centres undefined)
→ -12 | 4% | -1.5 | 7.3% | x | 1.1 | 1
> Nc1c(/C=C2\C=Nc3ccccc32)c(=O)nc2sc(CC(=O)N3CCOCC3)nn12
→ -1 | 7% | x | -0.7% | -1.3% | 3.0 | -14
> Cc1ccc(S(=O)(=O)NCCOC(=O)Nc2sc(=S)n(C)c2C)cc1
→ 28 | 56µM* | -4.7 | x | -1.1% | 0.0 | -2
> CCOC(=O)c1noc2ncnc(Nc3cccc(C(F)(F)F)c3)c12
→ x | x | x | -1.0% | 1.4% | -0.5 | -1

# Structures listed so far containing an aryl methoxy group (seven):
# Below each compound: TRPV1 PAM | Sfp PPTase inh | Menin MLL FP FL | PINK1 modulator | ClpP mod | TRPML1 ag | TRPML1 inh
> COc1ccc(-c2c(C#Cc3ccsc3)c3cc(-c4ccc5c(c4)OCCO5)ccc3n2C)cc1
→ x | x | x | 0.0% | 3.8% | -0.6 | 6
> COc1ccc(-c2nc3ccc(N4CCN(C)CC4)cc3c(=O)[nH]2)cc1
→ 2 | 23% | 1.9 | 1.6% | x | 0.1 | -5
> COc1ccc(C(=O)Nn2c(CC(C)C)nc3cc(OC)c(OC)cc3c2=O)c(OC)c1
→ -4 | 3% | 0.4 | 1.9% | -4.0% | -0.8 | -4
> COc1ccc(-c2sc3cc4c(cc3c2-c2ccc3c(c2)OCCO3)OCO4)cc1
→ x | x | x | 1.6% | u | -0.5 | 16
> CCOC(=O)c1cnc2cc(Cl)c(OC)cc2c1Nc1ccc(Br)cc1C
→ x | x | x | 1.5% | 1.9% | -0.2 | 4
> COc1ccc(C2NC(=S)NC(C)=C2C(=O)Nc2ccccn2)cc1OC (centres undefined)
→ 19 | 6% | 6.3 | -0.5% | -0.9% | -0.5 | 2
> COC(=O)C1=C(C)Nc2nc3ccccc3n2C1c1cc(OC)c(OC)c(OC)c1 (centres undefined)
→ -12 | 4% | -1.5 | 7.3% | x | 1.1 | 1

# Hits appear at their usual frequency; about 4.4% have a hit in one of these screens.
